Source: PubChem (several laboratories)
CSC inhib – cancer stem cell viability inhibitors, primary screen, luminescence; cancer stem cell-like cells viability; hit rate 1.1% among 300,000; inhibition, % at 7.5 µM; AID 2717, 2010;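 active means mean at 75% or more and at least half the replicates too; inconclusive means mean and replicates disagree; tested in HMLE shEcad cells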;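 further: 0% = median of negative and 100% = median of positive control wells; the first replicate is given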
PABP FP inh – PABP poly(A) RNA binding inhibitors, primary screen, biochemical, fluorescence polarization, uHTS; Polyadenylate-binding protein 1 (Homo sapiens), P11940; hit rate 1% among 290,000; inhibition, % at 35 µM;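 active means 50% or more with normal probe brightness, or confirmed in later tests; inconclusive means above 50% with abnormal brightness, or retests that disagree; inactive means below 50% or failed in later tests; about a fifth of its hits are not listed in these tables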;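 further: calls also rest on retests at 20 µM and on dose response follow-up; controls were probe without protein and protein plus probe with vehicle; some compounds called inactive have numbers as strong as hits; many hits fall short of the cut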
Target sequence (P11940 whole entry, looked up): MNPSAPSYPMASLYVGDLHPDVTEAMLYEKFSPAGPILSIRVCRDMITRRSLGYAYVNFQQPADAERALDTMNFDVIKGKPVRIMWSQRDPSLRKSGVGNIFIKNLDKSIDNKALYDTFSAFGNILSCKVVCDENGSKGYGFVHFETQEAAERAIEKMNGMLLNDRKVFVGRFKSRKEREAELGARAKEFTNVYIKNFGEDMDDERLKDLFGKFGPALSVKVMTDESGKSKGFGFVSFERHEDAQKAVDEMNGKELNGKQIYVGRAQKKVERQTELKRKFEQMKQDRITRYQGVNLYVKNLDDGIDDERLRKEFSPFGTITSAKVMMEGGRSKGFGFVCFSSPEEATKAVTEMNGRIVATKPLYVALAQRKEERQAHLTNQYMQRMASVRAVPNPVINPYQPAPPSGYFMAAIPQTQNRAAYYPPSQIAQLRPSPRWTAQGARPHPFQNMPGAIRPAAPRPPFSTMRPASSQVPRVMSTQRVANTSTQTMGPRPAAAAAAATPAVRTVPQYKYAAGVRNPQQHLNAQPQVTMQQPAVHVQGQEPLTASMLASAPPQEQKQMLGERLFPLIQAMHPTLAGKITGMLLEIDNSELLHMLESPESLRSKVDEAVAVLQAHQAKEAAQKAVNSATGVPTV
eIF4H FP inh – human eIF4H binding inhibitors, primary screen, translation initiation inhibitor project, biochemical, uHTS, fluorescence polarization; Eukaryotic translation initiation factor 4H (Homo sapiens), Q15056; eIF4H fluorescence polarization binding assay; inhibition, % at 35 µM; hit rate 0.94% among 290,000; AID 2012, 2009;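 active means 50% or more with normal probe brightness, or confirmed in later tests; inconclusive means above 50% with abnormal brightness, or retests that disagree; inactive means below 50% or failed in later tests; about a fifth of its hits are not listed in these tables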;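 further: calls also rest on retests at 20 µM and on dose response follow-up; 0% = protein and probe with vehicle and 100% = probe without protein; strong numbers were not always called active; many hits fall short of the cut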
HIV Env fusion – inhibitors of HIV-1 Env-driven cell-cell fusion, primary screen, HeLa-JRFL effector, CEM21 target cells, luciferase; inhibition, % at 12.3 µM; hit rate 1.1% among 360,000;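 active means mean replicate inhibition score of at least 50 and every replicate individually at or above 50; inconclusive means only one of the two criteria met; inactive means mean below 50 and not all replicates reaching 50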;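 further: 0% = plate neutral controls and 100% = maraviroc near 300 nM; one replicate is shown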
MT1-MMP act inh – blockers of MT1-MMP proenzyme processing, primary screen, HT1080 RFP-PRO-GFP cells, GFP/RFP fluorescence. GFP/RFP ratio fluorescence, overnight; percent of plate control window, DMSO zero. hit rate 0.061% among 360,000. Matrix metalloproteinase-14 (Homo sapiens), P50281. GFP/RFP ratio change, % at 20 µM;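 active means GFP/RFP ratio change of at least 30% with cell ATP level not reduced by more than half and red fluorescence within 50% of control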; further: strong numbers were not always called active
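Assay system: HT1080 RFP-PRO-GFP cells. Benchmarks: DMSO vehicle wells and RFP-L50D-GFP reporter cell wells. Times: overnight cell settling, then overnight compound exposure, 37 °C, 5% CO2. Compound: 20 µM single dose, 1% DMSO. Read-out basis: GFP/RFP fluorescence ratio.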
UUG fidelity – modulators of yeast start codon fidelity, primary screen, whole organism, S. cerevisiae, single point, plate reader. hit rate 0.13% among 350,000. AID 602363, 2012. activity score, % at 18.7 µM. S. cerevisiae UUG-firefly luciferase reporter, luminescence/redox ratio;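 active means replicate mean at a twofold rise or more, about +100% in these data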;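 further: firefly luciferase made from a UUG start codon reports start codon fidelity; reporter light over untreated wells divided by growth signal over untreated wells; some hits fall short of that in this replicate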
Rce1 inhib – yeast Rce1p protease inhibitors, primary screen, biochemical, fluorescence, cell-free homogeneous. yeast membranes, quenched prenylated peptide cleavage fluorescence. hit rate 0.27% among 290,000. CAAX prenyl protease 2 (Saccharomyces cerevisiae (strain ATCC 204508 / S288c)), Q03530. calls only;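 active means fall in fluorescence gain of 50% or more versus controls, with final raw signal at or below 3038400; inconclusive means same 50% fall but final raw signal above 3038400; inactive means fall in fluorescence gain under 50%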;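 further: plate controls were neutral control wells for no effect and wells lacking membranes for full effect; tested at 10 µM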
Target sequence (Q03530 whole entry, looked up): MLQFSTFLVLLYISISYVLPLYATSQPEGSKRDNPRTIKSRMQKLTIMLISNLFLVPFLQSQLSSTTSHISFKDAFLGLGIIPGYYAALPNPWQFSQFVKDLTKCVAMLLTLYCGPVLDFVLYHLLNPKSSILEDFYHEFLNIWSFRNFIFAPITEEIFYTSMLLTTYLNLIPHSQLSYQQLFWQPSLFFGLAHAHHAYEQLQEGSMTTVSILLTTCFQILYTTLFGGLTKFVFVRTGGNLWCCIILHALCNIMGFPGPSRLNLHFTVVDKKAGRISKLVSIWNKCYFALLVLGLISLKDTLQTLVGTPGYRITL
eIF4H FP inh retest – also measured in eIF4H FP inh; calls as there; inhibition, %; compound at 20 µM; confirmation average;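 mean of two retest wells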
PABP FP inh retest – further read-out of PABP FP inh, marked with its call; inhibition, %; compound at 20 µM; confirmation repeats;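 mean of two retest wells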
MT1-MMP act inh RFP – second read-out of MT1-MMP act inh, no call of its own (marks repeat the call); RFP signal change, %; measured here: RFP expression control read;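 0 = vehicle wells; hits needed this value within 50% of zero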
Active calls of the source: *; i = inactive; u = inconclusive; x = no result given; & = joins results of further samples; [ ] = another dose, or the depositor's remark.

SMILES | CSC inhib | PABP FP inh | eIF4H FP inh | HIV Env fusion | MT1-MMP act inh | MT1-MMP act inh RFP | UUG fidelity | Rce1 inhib | others
COc1ccc(OCC(=O)N/N=C(/C)Cc2ccccc2)cc1 | -3 | 6 | -6 | -38 | 7 | 11 | x | i
COc1cccc(-n2c(C)n[nH]c2=O)c1 | -15 | -5 | 3 | 13 | 4 | 0 | -16 | i
CC(C)(C)c1ccc(C(=O)Nc2nnc(SCC(=O)NCC3CCCO3)s2)cc1 (stereo not given) | -5 | -16 | -6 | -251 | 3 | -14 | -14 | i
O=C(Nc1ccccc1C(F)(F)F)N1CCN(c2ccc3nnc(-c4ccc(F)cc4)n3n2)CC1 | x | 2 | 2 | -39 | 2 | -2 | -18 | i
COc1cc2c(cc1OC)C(C(=O)NCCN(C)C)C(c1cccs1)N(C)C2=O (stereo not given) | -2 | 2 | 1 | -7 | -2 | -5 | x | i
COc1cccc(-c2ncc3ccccc3c2COC(=O)N2CCOCC2)c1 | -13 | x | x | -14 | 1 | 0 | 0 | x
CCc1ccc(NC(=S)N(CCCN2CCOCC2)Cc2ccccn2)cc1 | 2 | 3 | -3 | 5 | -2 | 6 | -27 | i
O=C(Nc1ccccc1C(=O)N1CCOCC1)C1CCC(=O)N1C1CCCC1 (stereo not given) | -5 | 7 | 18 | -8 | -1 | 2 | -21 | i
O=C(CN1C(=O)/C(=C/c2ccccc2Cl)SC1=S)NC1C=CS(=O)(=O)C1 (stereo not given) | 1 | x | x | 2 | 4 | 8 | -17 | i
Cc1ccc(C2C3=C(CCCC3=O)Nc3nc(SCC(=O)NCc4ccco4)[nH]c(=O)c32)cc1 (stereo not given) | 4 | 8 | 11 | 18 | -1 | -3 | -14 | i
CCCCN(C)C(=O)c1nc2ccccn2c1CN1CCN(C/C=C/c2ccccc2)CC1 | -10 | 5 | 5 | -13 | -11 | -2 | x | i
COc1ccc(OC)c(S(=O)(=O)N2CCC(C(=O)N3CCCCCC3)CC2)c1 | -12 | -8 | -6 | -3 | 4 | 5 | -6 | i
Cc1c(C(=O)NCc2ccccc2C(F)(F)F)sc(=O)n1Cc1ccc(Cl)c(Cl)c1 | x | x | x | 6 | 5 | -5 | -11 | x
COC(=O)c1onc(-c2c(C)cc(C)cc2C)c1C(=O)OC | -12 | -8 | -5 | x | 3 | 8 | 40 | i
COc1ccc(C(CCN(Cc2ccc(OC)c(OC)c2)C(C)=O)c2ccccc2)cc1 (stereo not given) | x | 14 | 2 | 18 | -7 | -7 | x | i
COc1ccc2cc3cc(C(=O)Nc4cc(OC)c(OC)c(OC)c4)oc3nc2c1 | 10 | -21 | -21 | -50 | 11 | -2 | -9 | i
Clc1nc(-c2cccnc2)nc2scc(-c3ccccc3)c12 | 12 | -10 | -2 | -4 | -9 | -4 | x | i
N#Cc1cc(Nc2c(N)nc[nH]c2=O)c([N+](=O)[O-])cc1C#N | -12 | 24 | 16 | 2 | -1 | 0 | x | i
O=S(=O)(NCc1cccnc1)c1ccc(Cl)s1 | -6 | -1 | -12 | x | x | x | -16 | x
CC(C)Cn1c(N)c(C(=O)COC(=O)c2cc(C(F)(F)F)nc3c(C(F)(F)F)cccc23)c(=O)n(C)c1=O | -2 | -2 | 5 | -9 | x | x | x | i
Cc1cc(C)cc(NC(=O)c2cccn2-c2ncc(C(F)(F)F)cc2Cl)c1 | x | -11 | -2 | 7 | -9 | -3 | x | i
CCCN1C2CCCC1CC(NC(=S)Nc1cc(C)ccc1C)C2 (stereo not given) | -14 | 9 | 2 | -30 | 2 | 4 | -21 | i
CC(C)(C)C(=O)OCc1nc(-c2ccc3c(c2)OCCO3)cs1 | x | 11 | 14 | -22 | -1 | 1 | -53 | i
CN(C(=S)Nc1ccc(SC(F)F)cc1)C(c1ccccc1)c1ccccc1 | u | 2 | -12 | 14 | 1 | -3 | -21 | i
Cc1ccc(S(=O)(=O)NCCNC(=O)CN2CCCC2)cc1 | -3 | -2 | 3 | -6 | -2 | 1 | -17 | x
More entries.
SMILES | CSC inhib | PABP FP inh | eIF4H FP inh | HIV Env fusion | MT1-MMP act inh | MT1-MMP act inh RFP | UUG fidelity | Rce1 inhib | others
COCC(C)NC(=O)c1ccc(Cl)c(Cl)c1 (stereo not given) | 8 | 13 | 3 | -84 | 10 | -4 | 39 | i
COC(=O)Nc1ccc2c(c1)N(C(=O)CCN1CCN3CCCC3C1)c1ccccc1S2 (stereo not given) | -14 | 11 | -3 | -11 | -6 | 2 | -9 | i
Cc1ccc(S(=O)(=O)N2CCN(Cc3nc4ccccc4[nH]3)CC2)cc1C | x | -2 | -3 | x | 1 | 1 | -21 | i
CSc1sc(C)cc1C1C(C#N)=C(N)N(c2cccnc2)C2=C1C(=O)CCC2 (stereo not given) | -3 | 17 | 19 | x | -5 | 2 | x | i
Cc1cc2occ(CC(=O)N(CCC(C)C)c3c(N)n(Cc4ccccc4)c(=O)[nH]c3=O)c2cc1C | 5 | x | x | -44 | -38 | -30 | 1 | i
COc1cccc(-c2nc3ccc([N+](=O)[O-])cc3o2)c1 | 0 | -14 | 1 | -49 | -6 | -4 | x | i
COc1ccc2c(c1)OC(O)(C(F)F)CC2=O (stereo not given) | -1 | 2 | 0 | x | -1 | 1 | -3 | i
O=c1[nH]c(C2CCN(S(=O)(=O)c3ccc(S(=O)(=O)NC4CC4)cc3)CC2)nc2c1nnn2Cc1ccc(F)cc1 | -5 | 0 | -2 | 12 | 2 | 0 | 9 | i
COc1ccc(N2CC(C(=O)N(CC(C)C)c3c(N)n(Cc4ccccc4)c(=O)[nH]c3=O)CC2=O)c(OC)c1 (stereo not given) | 0 | x | x | -3 | 2 | 4 | x | x
Cc1ccc(-n2nnc3c(=O)n(CC(=O)NCc4ccco4)cnc32)cc1 | 0 | 8 | -3 | 7 | -2 | 1 | -10 | i
C=CC(C)(C)c1[nH]cnc1/C=C1\NC(=O)C(C(C)C)NC1=O (stereo not given) | 22 | 11 | 14 | x | -2 | -1 | -14 | i
Cc1ccc(C2C3CN(C(C)C)CC=C3C(C#N)=C(N)C2(C#N)C#N)cc1 (stereo not given) | -11 | u | u | -206 | -200 | 13 | -4 | i
Cc1cccc(NC(=S)NN2CCOCC2)c1C | -7 | 3 | -12 | x | 0 | 5 | x | i
O=C(CC12CC3CC(C1)CC(CC(=O)NC1=NCCS1)(C3)C2)NC1=NCCS1 | x | 0 | 0 | 17 | 6 | 3 | 16 | i
C/C(=C\c1ccco1)CN1CCN(Cc2ccc(C)o2)C(CCO)C1 (stereo not given) | 38 | 15 | 0 | 13 | 3 | 0 | x | i
O=C(CCS(=O)(=O)Cc1ccccc1)Nc1ccc2c(c1)OCCO2 | -5 | 72* | 11 | 10 | 2 | 4 | x | i | eIF4H FP inh retest=40;PABP FP inh retest=89*
O=C(NC(Cc1c[nH]c2ccccc12)C(=O)N/N=C/c1cccc2ccccc12)c1cccs1 (stereo not given) | 15 | 0 | -13 | 28 | -2 | -2 | x | i
Brc1ccc(-c2nn3c(Cc4ccccc4)nnc3s2)o1 | -11 | -3 | -6 | x | 5 | 6 | -14 | i
COc1ccc(OC)c(NC(=O)CCNC(=O)N2CC(=O)Nc3ccccc32)c1 | x | x | x | -7 | -2 | 2 | -7 | x
CCCNC(=O)Cn1cnc2sc(C(=O)N3CCCC(C(=O)OCC)C3)c(C)c2c1=O (stereo not given) | 1 | -4 | 10 | x | 11 | 1 | 0 | i
CCOc1ccc(C2=Nc3ccc(Br)cc3C(c3ccc(N4CCOCC4)cc3)=NN2)cc1 | x | -8 | -9 | -17 | 3 | 1 | x | i
Cc1ccc(S(=O)(=O)NCC2COc3ccccc3O2)cc1 (stereo not given) | -2 | 20 | 3 | -11 | -2 | 3 | -4 | i
COc1ccc(S(=O)(=O)c2c(O)cc(C)c(NS(=O)(=O)c3ccccc3)c2C)cc1 | 19 | 5 | 8 | 4 | 0 | -4 | 3 | i
Nc1nnc(SCC(=O)NCCOc2ccccc2)s1 | 19 | -17 | -1 | x | 3 | 3 | -16 | x
O=c1ccccn1CCOc1ccc(Cl)cc1 | -7 | 0 | -9 | 10 | 1 | 2 | x | i
(next part)
SMILES | CSC inhib | PABP FP inh | eIF4H FP inh | HIV Env fusion | MT1-MMP act inh | MT1-MMP act inh RFP | UUG fidelity | Rce1 inhib | others
COc1ccccc1OCCOc1ccc(/C=C2\C(=N)N3N=C(C)SC3=NC2=O)cc1 | -14 | 0 | -3 | -9 | -8 | 0 | 0 | x
CN(CC1COCCO1)C(=O)c1cc(COc2c(F)cccc2F)on1 (stereo not given) | -8 | 11 | -9 | -4 | 2 | 1 | -18 | i
Cc1c(C(=O)O)sc2nc3n(c(=O)c12)CCCCC3 | 2 | -1 | -12 | -40 | 2 | 2 | 3 | i
COc1ccc(C(=O)Nc2cccc(C(C)=O)c2)c(OC)c1OC | 7 | 5 | -2 | -41 | 1 | 4 | 20 | i
C[C@@H]1CN([C@@H](C)CO)C(=O)CCCn2nncc2CO[C@@H]1CN(C)S(=O)(=O)c1ccc(Oc2ccccc2)cc1 | x | x | x | -23[16.7 µM] | 0 | -1 | 1&2&1 | x
O=C(CNC(=O)c1cccs1)c1ccc(Br)cc1 | -16 | 0 | -4 | -84 | -3 | -3 | -20 | i
O=C(Nc1ccc(C(=O)OC[C@@H]2CCCN3CCCC[C@H]23)cc1)c1cccc(Br)c1 | -10 | 2 | -10 | x | 2 | 2 | x | i
Cn1c(N)c(N2CCCCC2)c(=O)n(CC(=O)Nc2ccc(Cl)c(Cl)c2)c1=O | -8 | -8 | 0 | x | 4 | 0 | x | i
Cc1cc(-c2ccccc2)nc2cc(C(=O)N(Cc3ccccc3)Cc3ccccc3)nn12 | 83* | -6 | 0 | x | -17 | -14 | 4 | i
NC(=O)C1CCN(C(=O)c2ccc(NS(=O)(=O)/C=C/c3ccccc3)cc2)CC1 | x | x | x | -39 | -6 | 1 | -8 | x
O=C(CSc1nnc(NC(=O)c2cccc(Br)c2)s1)NCC1CCCO1 (stereo not given) | x | 5 | -8 | x | -4 | 2 | -9 | i
COCCNC(=O)C(NC(=O)C1CCC(C)CC1)C(C)C (stereo not given) | x | 11 | 2 | -5 | -3 | -3 | -24 | i
COc1ccc(C(=O)Nc2ccc(NC(=O)c3cccs3)cn2)cc1 | 2 | 6 | -8 | 1 | 2 | 2 | -6 | i
CC(C)(C)OC(=O)N1CCN(C(=O)c2[nH]cnc2C(=O)Nc2ccon2)CC1 | -7 | x | x | -5 | 3 | 12 | -9 | x
O=C(Nc1ccc(F)cc1)c1ccc(S(=O)(=O)NCC2CCCO2)cc1 (stereo not given) | 2 | -1 | 12 | x | 1 | -15 | -10 | i
O=C(NC1CCC1)C1CCC(=O)N(Cc2ccc(Cl)cc2)C1 (stereo not given) | x | x | x | -1 | 1 | 5 | -10 | x
